# CBX7 inh: CBX7 inhibition, primary AlphaScreen | AlphaScreen His6-CBX7 / biotin-H3K27me3 peptide binding; active compounds read low | normalised signal (fraction of DMSO) (concentration not given with the values) | hit rate 1.1% among 66,000 | O95931; in the data active = normalised signal below about 0.5;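 note: 100 nL library stock added to about 20 µL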
# Target sequence (O95931 whole entry, looked up): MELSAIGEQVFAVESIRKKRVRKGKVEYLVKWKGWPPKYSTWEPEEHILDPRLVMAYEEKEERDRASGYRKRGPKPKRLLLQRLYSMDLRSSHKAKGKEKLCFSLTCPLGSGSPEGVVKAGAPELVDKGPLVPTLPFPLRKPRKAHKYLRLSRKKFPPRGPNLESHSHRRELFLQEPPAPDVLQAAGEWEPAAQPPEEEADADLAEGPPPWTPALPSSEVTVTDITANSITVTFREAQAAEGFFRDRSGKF
# CBX7 inh z-score: also measured in CBX7 inh; calls as there; z-score; measured here: z-score of CBX7 signal; some inactives read as strong as hits; reference of the scale not given here;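 same signal on another scale; lower means less binding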
# An asterisk follows results filed as active. This is a subset (hit frequency here may not be typical).
SMILES,CBX7 inh,CBX7 inh z-score
COc1ccc(C(=O)c2oc3ccccc3c2NC(=O)c2ccc(Br)cc2)cc1,0.995,-0.0966
COc1ccc(NC(=O)c2c(NCc3ccc(OC)c(OC)c3)sc3c2CCCC3)c(OC)c1,0.5,-9.86
Cc1cc(S(=O)(=O)Nc2ccc3oc4c(c3c2)CCCC4)ccc1Cl,1.1,1.07
Cc1ccc(Cl)cc1NC(=O)C1(S(=O)(=O)c2ccc(Cl)cc2)CC1,1.1,1.65
CCOC(=O)c1nnn(-c2nonc2N)c1CNCc1ccccn1,0.858,-3.78
CC(C)OCCCNC(=O)c1cn(C2CCCC2)c(=O)c2c1c1ccccc1n2C,0.935,-1.61
COCCCNC(=O)c1c[nH]c2ccc(S(=O)(=O)Nc3cc(C)cc(C)c3)cc2c1=O,0.902,-1.81
CCc1nnc(NC(=O)Cn2nc(Cc3ccncc3)c3ccccc3c2=O)s1,1.16,1.7
CC(C)Oc1ccc(C2CC(=O)NC3=C2C(=O)CCC3)cc1 (stereo not given),0.948,-0.657
CC(C)(C)C1CCc2oc3ccc(NS(=O)(=O)c4ccc(Cl)cc4)cc3c2C1 (stereo not given),1,-0.00125
N#Cc1c(-n2ncnc2-c2cccnc2)sc2c1CCCCC2,0.831,-1.85
CCOc1ccc(-c2cc(C(=O)NCCc3ccc(OC)c(OC)c3)c3ccccc3n2)cc1,1.08,1.93
O=C(c1ccc(Cl)cc1)N1CCc2c([nH]c3ccccc23)C1c1ccccc1 (stereo not given),0.848,-2.71
Cc1c(C(=O)Nc2ccc(F)cc2)sc2ncn(CC(=O)N3CCCCC3C)c(=O)c12 (stereo not given),0.997,-0.0822
CCN(CCCNC(=O)c1cnc(Nc2ccccc2OC)c2ccccc12)c1cccc(C)c1,1.03,0.254
Cc1csc2ncc(C(=O)Nc3ccc(S(N)(=O)=O)cc3)c(=O)n12,1.05,1.15
O=C1c2ccccc2C(=O)N1CCc1c[nH]c2ccccc12,0.91,-1.25
O=C(NCc1ccccc1)c1nnc(Cc2ccc(F)cc2)o1,0.9,-1.15
COc1ccc(-n2nc(C(=O)NCC(=O)NCCN3CCCC3)c3ccccc3c2=O)cc1,0.955,-0.925
COc1ccc(-c2noc(CCC(=O)N3CCN(c4cccc(C(F)(F)F)c4)CC3)n2)cc1,0.926,-1.98
COC(=O)c1c(NC(=O)c2cccc(Cl)c2)sc2c1CCCC2,1.58,22.9
O=C(Nc1ccccc1C(=O)O)c1ccc(N2C(=O)C3C4C=CC(C4)C3C2=O)cc1 (stereo not given),1.05,1.83
O=C(Nc1ccc(Br)cc1)c1cnn2c1NC(C1CC1)CC2C(F)F (stereo not given),1.01,0.0679
CCN1CCN(c2cc(C)c3cc(NC(=O)Cc4ccc(Cl)c(Cl)c4)ccc3n2)CC1,1.08,0.571
CCc1ccc2nc(N3CCC(C(=O)NC4CCCC(C)C4C)CC3)sc2c1 (stereo not given),1.07,1.57
# More structures follow.
SMILES,CBX7 inh,CBX7 inh z-score
CCC1Oc2ccccc2N(CC(=O)NCCN2C(C)CCCC2C)C1=O (stereo not given),1.1,3.02
CCOc1ccc2nc(NC(=O)COc3ccccc3)sc2c1,1.09,3.17
O=C(Nc1ncc2c(n1)CC(c1ccco1)CC2=O)c1ccccc1 (stereo not given),0.982,-0.731
Cc1ccccc1OCc1nnc(SC(C)C(=O)O)n1Cc1ccccc1 (stereo not given),0.83,-1.74
CCN(C(=O)CCc1nc(-c2ccccc2F)no1)c1ccccc1F,0.851,-2.29
CCOC(=O)c1c(C)n(C)c2ccc(OCC(O)CNCCO)cc12 (stereo not given),0.982,-0.637
O=C(CCN1N=C(c2ccccc2)CCC1=O)NCCCN1CCOCC1,1.07,1.25
CC(c1cccnc1)N(CCN(C)C)C(=O)Nc1ccc(Cl)cc1 (stereo not given),1.01,0.612
COCc1cc(C)n(CC(=O)Nc2cccc(C(F)(F)F)c2)c(=O)c1C#N,0.913,-0.087
CCCSc1oc(-c2cccs2)nc1S(=O)(=O)c1ccc(F)cc1,1.04,0.0661
CCc1ccccc1OCCn1c(-c2ccc(Cl)cc2)nc2ccccc2c1=O,1.45,4.29
COc1ccc(NC(=O)C2OC3OC4(CCCCC4)OC3C3OC4(CCCCC4)OC23)cc1Cl (stereo not given),0.999,-0.0202
COc1ccc(-c2noc(N(C)CC(=O)Nc3ccc(F)c(Cl)c3)n2)cc1,1.06,2.04
COc1ccc(C2CC(=O)N(CC(=O)NCc3ccc4c(c3)OCO4)c3ccccc3S2)cc1 (stereo not given),0.873,-1.8
Cc1nc2c(C(=O)NCCCN3CCCC(C)C3)cnn2c(C)c1Cc1ccccc1 (stereo not given),0.991,-0.195
Brc1ccc(NCc2nc3ccccc3n2CCOc2ccccc2)cc1,1.04,1.42
CCCOc1ccc(N2C(=O)CC(N3CCC(C(N)=O)(N4CCCCC4)CC3)C2=O)cc1 (stereo not given),1.01,0.632
O=C(Cn1nc(Cc2ccncc2)c2ccccc2c1=O)N1CCc2ccccc2C1,1.05,0.565
COc1ccc(-c2noc(CC(c3ccccc3)c3ccccc3)n2)cc1,1.26,7.85
COc1cccc(CN2CCN(Cc3ccc4ccccc4c3)CC2)c1OC,0.745,-3.06
O=C(NCc1ccc2c(c1)OCO2)c1ccccc1Cl,1.11,1.03
COc1cccc(-c2nnc(NC(=O)c3ccc(S(=O)(=O)N4CCCC4)cc3)o2)c1,0.889,-2.5
COc1ccc(-c2cc(C(=O)NC(C)c3ccccc3)c3cc(C(C)C)ccc3n2)cc1 (stereo not given),1.07,0.0826
CC1CCc2c(C(=O)NCc3cccnc3)csc2C1 (stereo not given),1.06,2.25
Cc1ccccc1-c1nc(CN2CCC(C(=O)NCc3ccccc3Cl)CC2)c(C)o1,1.07,0.0926
# Continued.
SMILES,CBX7 inh,CBX7 inh z-score
CC(C)c1cc(C(=O)NCCc2ccccc2)no1,1.1,1.49
Cc1cc2nc(SCc3cccc(Cl)c3)n(Cc3ccccc3F)c2cc1C,1.04,0.447
Cc1cc(N2CCN(C)CC2)nc2ccc(NC(=O)CCC(=O)NCc3ccc4c(c3)OCO4)cc12,1.01,0.484
Cc1ccc(CNC(=O)c2cc3c(C)nccc3[nH]c2=O)cc1,0.991,-0.228
COc1ccc(-c2nc(Cn3c(SCc4cccc(F)c4)nc4ccncc43)c(C)o2)cc1,0.888,-3.36
O=C1CN(C(=O)CCCc2ccccc2)C(c2ccc(F)cc2)c2cc(Cl)ccc2N1 (stereo not given),0.766,-2.24
COc1ccc2c(c1)c(=O)c(S(=O)(=O)c1ccc(F)cc1)cn2CC(=O)Nc1ccc(F)cc1,0.986,-0.194
CC1(C)CNC(=O)c2sc(NC(=O)CN3CCOCC3)nc2C1,0.829,-1.87
O=C(COc1ccc(Cl)cc1)Nc1c2c(nn1-c1ccc(Cl)cc1)CSC2,0.999,-0.0214
COc1ccc(NC(=O)c2c(-c3ccccc3Cl)noc2C)cc1OC,0.975,-0.504
Cc1ccc(-c2noc(CCC(=O)NCCCN3CCN(c4ccc(F)cc4)CC3)n2)cc1,0.976,-0.375
CCC(C)NC(=O)c1cccc2c1C(=O)N(Cc1cccnc1)C2 (stereo not given),0.626,-3.11
O=C(Cc1ccccc1)Nc1ncc(Cc2cc(Cl)ccc2Cl)s1,1,0.0513
Cc1cccc(Nc2nc3nonc3nc2Nc2ccccc2)c1C,0.98,-0.521
Cc1cccc(C)c1NC(=O)C1(N(Cc2ccco2)C(=O)CC2NC(=O)NC2=O)CCCC1 (stereo not given),1.03,0.98
COc1cccc(C2NCCc3cc(OC)c(OC)cc32)c1 (stereo not given),0.981,-0.182
O=C(NC1CCCc2ccccc21)c1cc2c(s1)-c1ccccc1OC2 (stereo not given),1.52,12.6
Cc1cccc(-c2cc(C(=O)NCc3cn(C)nc3C)c3ccccc3n2)c1,1.07,0.849
CCn1cc(C(=O)NCCCN2CCN(c3cccc(Cl)c3)CC2)c2cc(OC)c(OC)cc2c1=O,0.886,-2.98
CCN(CC)c1cc(C)c2cc(NC(=O)c3ccncc3)ccc2n1,0.928,-3.37
O=C1CCCC2=C1C(c1cccc(Cl)c1)Nc1ccc3ncccc3c12 (stereo not given),1.48,0.974
CCOC(=O)c1sc(Nc2ccccc2Cl)nc1C,1.02,0.725
Cc1ccc(-c2nc3sc4c(c3c(=O)[nH]2)CCCC4)cc1,1.2,1.48
CCCCCc1ccc(-c2ccc(C(=O)O)cc2)nc1,1.06,1.23
Cc1[nH]c2c(ccc3ccccc32)c(=O)c1CN(C)Cc1ccccc1,1.04,0.721
# Next part.
SMILES,CBX7 inh,CBX7 inh z-score
COc1ccccc1OCc1nc(C#N)c(NCc2ccc(F)cc2)o1,0.715,-2.72
Cc1ccc(Cc2c(C)nc3c(C(=O)N4CCOCC4)cnn3c2C)cc1,1.01,0.247
CCC1=Nc2cc(C(=O)NCCOC)ccc2Sc2ccc(C)cc21,0.909,-0.973
O=C(Cc1ccc(Cl)cc1)Nc1ccc2oc(-c3ccccc3)nc2c1,1.02,0.0202
C=CCNC(=O)CN1C(=O)C(CC)Oc2ccc(C)cc21 (stereo not given),1.06,2.97
CCOc1ccc(-n2nc(C(=O)Nc3cc(Cl)ccc3OC)c3ccccc3c2=O)cc1,1.04,0.995
O=C(Nc1cccc(-c2nc3ncccc3o2)c1)c1cc(Br)ccc1Cl,0.911,-2.21
COc1ccc(CCNC(=O)C2(C)CCC(=O)N2Cc2cccs2)cc1OC (stereo not given),1.07,1.21
Cc1ccccc1NC(=O)CSc1nc(-c2ccccc2)cn1-c1ccccc1C,0.731,-8.83
Cc1ccc(C(=O)Nc2sc3c(c2C(=O)N2CCOCC2)CCCCC3)cc1,1.08,2.7
CN1CC(=O)Nc2cc(C(=O)NCCCN3CCCC3)ccc21,0.877,-1.78
CCCCCC(=O)Nc1ncc2c(n1)CC(c1ccc(C)cc1)CC2=O (stereo not given),0.97,-0.311
Cc1ccc(-c2csc(NC(=O)c3cccs3)n2)cc1C,1,0.0603
COc1cc2[nH]c(=O)n(CCCCCC(=O)NC3CCN(Cc4ccccc4)CC3)c(=O)c2cc1OC,1.13,3.38
COc1ccc(CCN2C(=O)C(Oc3ccccc3C)C2c2ccc3c(c2)OCO3)cc1 (stereo not given),0.835,-0.583
Cc1c(-c2cccs2)nc2ccc(Br)cc2c1C(=O)O,0.92,-0.109
O=c1c2nnn(Cc3ccc(F)cc3)c2ncn1Cc1ccccc1F,0.999,-0.0279
Cc1nnc(Sc2cc(C(=O)NCCN(Cc3ccccc3)C(C)C)c3ccccc3n2)s1,1.02,0.569
O=C(CN1CCN(Cc2ccccc2)C1=O)NCc1cccnc1,1,0.00673
CCOc1ccc(Cl)cc1C1CC(=O)Nc2cc(OC)c(OC)cc21 (stereo not given),0.998,-0.0696
Cc1ccc(C2C(=O)N(C3CCC(C)CC3)CC(=O)N2CCc2ccccc2)cc1 (stereo not given),1.08,0.592
COc1ccccc1NC(=O)CN1C(=O)CC(c2ccccc2)Sc2ccccc21 (stereo not given),0.847,-2.57
C#CCOc1ccc(-c2nnc(Nc3ccccc3)c3ccccc23)cc1,0.96,-0.188
Cc1ccc(-c2cn(-c3ccccc3)c(S(=O)(=O)CC(=O)Nc3cccc(C(F)(F)F)c3)n2)cc1,0.738,-2.65
O=C(COc1ccc(Cl)cc1)Nc1c2c(nn1-c1ccc(Cl)cc1)CS(=O)(=O)C2,1.02,0.24
# Continued.
SMILES,CBX7 inh,CBX7 inh z-score
Cc1ccccc1NC(=O)c1ccccc1NC(=O)c1cncc(Br)c1,1.07,1.33
O=C(O)c1ccc(Nc2nc(-c3ccccc3)cs2)cc1,0.862,-1.74
O=C(NCc1ccc2c(c1)OCO2)c1cc2sccc2n1Cc1ccc(Cl)cc1,0.851,-4.11
CCOC(=O)c1cnc2ccc(OCC)cc2c1Nc1ccc(C)cc1Br,1.01,0.00675
Nc1c(C(=O)C23CC4CC(CC(C4)C2)C3)sc2nc3c(c(-c4cccnc4)c12)CCC3,1.03,0.562
CCN1CCN(c2ncc(C(=O)Nc3cc(Cl)ccc3OC)c3ccccc23)CC1,1.42,0.852
Cc1cccc(OCCCCCCc2c(C)n[nH]c2C)c1C,0.982,-0.731
Cc1ccc2nc(SCC(=O)Nc3ccccc3F)[nH]c2c1,0.837,-2.54
C#CCn1c(-c2nonc2N)nc2ccccc21,0.853,-2.03
